Source: PubChem BioAssay (Broad Institute)
Vaccinia stage: blocks a specific stage of Vaccinia orthopoxvirus infection; Vaccinia-infected cells, mCherry/Venus stage reporter fluorescence; stronger effect = lower value; some inactives read as strong as hits; activity change (mCherry), % (concentration not given with the values); 89,000 compounds, 0.01% hits;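 active = mCherry past -33% and 40 or more points under the early reporter, replicates agreeing; inconclusive = past -33% without that gap or agreement; tested in A549 cells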;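 note: scaled between vehicle wells and reference inhibitor wells; 23 nL library stock went into each well; one replicate is shown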
Vaccinia stage Venus: recorded beside Vaccinia stage, whose call it bears; activity change (Venus), %; measured here: Venus reporter, other viral stage;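 negative = less Venus signal; first of two replicates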
Numbers without * were called inactive; ? = inconclusive; / = no result given. These rows are one share of the data; rates above refer to the full screens.

mol | Vaccinia stage | Vaccinia stage Venus
CC(C)NC(=O)N(C)C[C@H]1Oc2ncc(-c3ccccc3F)cc2C(=O)N([C@H](C)CO)C[C@H]1C | 1.4 | -1.3
C[C@H]1CCCCO[C@H](CN(C)C(=O)C2CCCCC2)[C@@H](C)CN([C@@H](C)CO)C(=O)c2cc(NS(=O)(=O)c3cccs3)ccc2O1 | ? | /
COc1ccc(CN2C[C@H](C)[C@@H](OC)CN(C)C(=O)c3ccc(NC(C)=O)cc3OC[C@@H]2C)cc1 | -4.7 | -8.2
COc1ccc(NC(=O)N(C)C[C@H]2OCc3cnnn3CCCC(=O)N([C@H](C)CO)C[C@@H]2C)c(OC)c1 | 14.6 | 10.1
N#C[C@H]1[C@@H](c2ccccc2-c2ccc(F)cc2)[C@@H](CO)N1c1ncc(-c2ccccc2)s1 | 0.1 | 1.9
C[C@@H]1CN([C@H](C)CO)C(=O)c2cccc(NC(=O)Nc3ccc(F)cc3)c2O[C@@H]1CN(C)Cc1ccc(-c2ccccc2)cc1 | ? | /
COC(=O)C[C@H]1CC[C@H]2[C@@H](COc3ccc(NC(=O)NCc4ccccc4)cc3C(=O)N2C)O1 | 8.2 | 4.4
CC(=O)N(C)C[C@@H]1Oc2ncc(C#Cc3ccccc3)cc2C(=O)N([C@H](C)CO)C[C@H]1C | 12.3 | 2.8
O=C(C[C@H]1C[C@H]2c3cc(NS(=O)(=O)c4ccccc4)ccc3O[C@H]2[C@H](CO)O1)NCC(F)(F)F | -3.3 | -3.3
CO[C@@H]1CN(C)C(=O)c2cc(NC(=O)Nc3c(C)noc3C)ccc2OC[C@@H](C)N(CCC(F)(F)F)C[C@H]1C | -6.7 | -2.7
C[C@H](CO)N1C[C@H](C)[C@H](CN(C)Cc2ccc(C(F)(F)F)cc2)Oc2c(NS(=O)(=O)c3ccc(F)cc3)cccc2C1=O | -33.7 | -19.5
C[C@@H]1CN([C@H](C)CO)C(=O)c2cc(NC(=O)CCCCCC(=O)Nc3ccccc3N)ccc2O[C@H]1CN(C)Cc1ccncc1 | 0.5 | -1.7
C[C@@H]1CN([C@@H](C)CO)C(=O)c2cccc(NS(=O)(=O)c3cccs3)c2O[C@@H]1CN(C)C(=O)Nc1ccc(F)cc1 | 3.4 | 6.8
N[C@@H]1CC[C@@H](CCn2cc(C3(O)CCCC3)nn2)O[C@H]1CO | 2.3 | -6.7
CC(=O)N1CCCCN2[C@@H](CO)[C@H](c3ccc(-c4cccc(C)c4)cc3)[C@@H]2C1 | -11.4 | -7.8
Cc1ccc(-c2ccc([C@@H]3[C@@H](CO)N4CCCCN(C(=O)Nc5ccccc5)C[C@@H]34)cc2)cc1 | ? | /
CC(C)NC(=O)Nc1ccc2c(c1)CC(=O)N([C@@H](C)CO)C[C@H](C)[C@H](CN(C)Cc1ccccc1)O2 | 9.7 | 22.2
O=C(C[C@H]1C[C@H]2c3cc(NC(=O)C4CCOCC4)ccc3O[C@H]2[C@H](CO)O1)NCc1cccnc1 | -1.1 | 6.5
C[C@@H]1CCCCO[C@H](CN(C)C(=O)Nc2ccc3c(c2)OCO3)[C@@H](C)CN([C@H](C)CO)C(=O)c2cc(NC(=O)C3CCCCC3)ccc2O1 | -2.5 | 3.6
CNC(=O)C[C@@H]1CC[C@H]2[C@@H](COC[C@@H](O)CN2C(=O)c2ccc3c(c2)OCO3)O1 | 21.4 | 20.4
COc1ccc(NC(=O)N(C)C[C@@H]2OCc3ccccc3-c3ccccc3C(=O)N([C@@H](C)CO)C[C@H]2C)cc1 | 15.8 | 8.3
C[C@@H]1CN([C@H](C)CO)C(=O)c2cccc(NC(=O)NC3CCCCC3)c2O[C@@H]1CN(C)Cc1ccc(C(F)(F)F)cc1 | -2.8 | -8.1
COc1ccc(CN(C)C[C@@H]2OCCCC[C@@H](C)Oc3ccc(NC(=O)C4CCCCC4)cc3C(=O)N([C@H](C)CO)C[C@@H]2C)cc1 | -1.9 | -8.6
COc1ccc(NC(=O)N(C)C[C@H]2OCc3cnnn3CCCC(=O)N([C@H](C)CO)C[C@H]2C)cc1 | -1.9 | -3.7
C[C@@H]1CN([C@H](C)CO)C(=O)c2cc(NC(=O)Nc3ccc(F)cc3)ccc2O[C@@H](C)CCCCO[C@@H]1CN(C)S(=O)(=O)c1cn(C)cn1 | 41.6 | 23.4
C[C@H](CO)N1C[C@H](C)[C@@H](CN(C)S(=O)(=O)c2ccccc2)Oc2ncc(-c3ccncc3)cc2C1=O | 3.7 | -0.3
C[C@H]1CN([C@@H](C)CO)C(=O)Cc2cc(NC(=O)NC3CCCCC3)ccc2O[C@@H]1CN(C)C(=O)Nc1cccc2ccccc12 | 4.7 | 20.9
C[C@H](CO)N1C[C@H](C)[C@@H](CN(C)S(=O)(=O)c2cn(C)cn2)Oc2ccc(NC(=O)C3CCCCC3)cc2C1=O | 15.4 | 5.7
Cc1ccc(S(=O)(=O)Nc2ccc3c(c2)C(=O)N([C@H](C)CO)C[C@H](C)[C@H](CN(C)S(=O)(=O)c2ccccc2)OCCCC[C@@H](C)O3)cc1 | 12.2 | 6.2
C[C@@H]1CN([C@H](C)CO)C(=O)c2cc(N(C)C)ccc2O[C@@H]1CN(C)CC1CCCCC1 | 4.4 | 8.3
C[C@@H]1CN([C@@H](C)CO)C(=O)c2cc(NS(=O)(=O)c3ccc(F)cc3)ccc2O[C@@H](C)CCCCO[C@H]1CN(C)S(=O)(=O)c1ccccc1 | 2.3 | 0.5
C[C@@H]1CN([C@@H](C)CO)C(=O)c2cc(C#Cc3ccccn3)cnc2O[C@@H]1CN(C)Cc1ccncc1 | 19.8 | 15.6
C[C@@H]1CN([C@H](C)CO)C(=O)c2cccc(NS(=O)(=O)c3cn(C)cn3)c2O[C@@H]1CN(C)C(=O)Nc1ccc2c(c1)OCO2 | 12.0 | 5.2
CCc1nc(N2[C@H](C#N)[C@H](c3ccccc3-c3ccccc3F)[C@@H]2CO)sc1C | -25.2 | -11.8
CNC(=O)C[C@H]1CC[C@H]2[C@@H](COc3ccc(NC(=O)Nc4ccccc4OC)cc3C(=O)N2C)O1 | 10.3 | 7.0
C[C@H]1CN([C@@H](C)CO)C(=O)c2cc(NC(=O)CCCCCC(=O)Nc3ccccc3N)ccc2O[C@H]1CN(C)S(=O)(=O)c1cccs1 | 18.0 | 4.4
COc1ccc(S(=O)(=O)N(C)C[C@@H]2Oc3ccc(NS(=O)(=O)c4ccc(F)cc4)cc3C(=O)N([C@@H](C)CO)C[C@H]2C)cc1 | 15.0 | 13.1
C[C@@H]1CN([C@@H](C)CO)C(=O)c2cccc(NC(=O)Nc3ccccc3)c2O[C@H]1CN(C)Cc1ccncc1 | -2.4 | -2.7
C[C@H](CO)N1C[C@H](C)[C@H](CN(C)S(C)(=O)=O)Oc2cc(-c3ccc(F)cc3)ccc2S1(=O)=O | -31.9 | -29.9
O=C(C[C@H]1C[C@@H]2c3cc(NC(=O)c4ccc5c(c4)OCO5)ccc3O[C@@H]2[C@@H](CO)O1)NCc1cccc(F)c1 | -4.4 | -4.7
C[C@@H]1CN([C@H](C)CO)C(=O)c2cc(-c3ccncc3)cnc2O[C@H]1CN(C)C(=O)NC1CCCC1 | 10.0 | 8.1
C[C@H](CO)N1C[C@H](C)[C@@H](CN(C)Cc2cccc(O)c2)OCc2ccccc2-c2c(n(C)c3ccccc23)C1=O | ? | /
CC(C)NC(=O)Nc1ccc2c(c1)C(=O)N([C@@H](C)CO)C[C@@H](C)[C@@H](CN(C)S(=O)(=O)c1ccc(Cl)cc1)O2 | 1.2 | 4.6
Cc1ccc(S(=O)(=O)Nc2ccc3c(c2)C(=O)N([C@H](C)CO)C[C@@H](C)[C@H](CN(C)S(=O)(=O)c2cn(C)cn2)O3)cc1 | 15.2 | 23.8
C#Cc1ccc([C@H]2C=C(C(=O)OCC=C)O[C@@H](OCC)[C@@H]2CCCO)cc1 | -5.5 | -5.4
COc1ccc(NC(=O)N(C)C[C@@H]2Oc3ccc(NS(=O)(=O)c4ccccc4)cc3CC(=O)N([C@H](C)CO)C[C@@H]2C)cc1 | 4.8 | -4.4
CCCC(=O)Nc1ccc2c(c1)OC[C@@H](C)N(CC1CCCC1)C[C@@H](C)[C@@H](OC)CN(C)C2=O | 12.6 | 2.0
O=C(C[C@@H]1C[C@@H]2c3cc(NC(=O)c4ccc5c(c4)OCO5)ccc3O[C@@H]2[C@@H](CO)O1)NCCc1ccccc1 | -2.5 | -0.5
COc1ccc(NC(=O)Nc2ccc3c(c2)C(=O)N([C@@H](C)CO)C[C@@H](C)[C@@H](CN(C)S(=O)(=O)c2ccc(F)cc2)OCCCC[C@@H](C)O3)cc1 | -14.3 | -3.7
COCC(=O)N(C)C[C@@H]1Oc2ncc(-c3ccc(F)cc3)cc2C(=O)N([C@H](C)CO)C[C@@H]1C | 19.8 | 13.3
O=C(c1cccc(F)c1)N1CC(=O)N2[C@H](CO)[C@@H](c3ccc(-c4cccnc4)cc3)[C@H]2C1 | -17.4 | -10.9
CNC[C@H]1Oc2ccc(NC(=O)CCC(F)(F)F)cc2CC(=O)N([C@@H](C)CO)C[C@H]1C | 1.8 | -3.0
C[C@@H]1CCCCO[C@H](CN(C)C(=O)Nc2ccccc2)[C@@H](C)CN([C@@H](C)CO)C(=O)c2cc(NS(C)(=O)=O)ccc2O1 | 15.5 | 4.7
CC(C)NC(=O)Nc1ccc2c(c1)C(=O)N([C@@H](C)CO)C[C@H](C)[C@@H](CN(C)Cc1ccc(Cl)c(Cl)c1)OCCCC[C@@H](C)O2 | ? | /
CCC(=O)N(C)C[C@H]1Oc2cc(/C=C/c3ccccc3)ccc2S(=O)(=O)N([C@H](C)CO)C[C@@H]1C | -11.8 | -20.1
C[C@@H]1CN([C@@H](C)CO)C(=O)c2cc(NC(=O)CCCN(C)C)ccc2O[C@@H](C)CCCCO[C@H]1CN(C)S(=O)(=O)c1cccs1 | -5.4 | -7.0
CCCNC(=O)N(C)C[C@@H]1Oc2cc(C#CCOC)ccc2S(=O)(=O)N([C@H](C)CO)C[C@@H]1C | 4.6 | 5.2
Cc1noc(C)c1NC(=O)Nc1cccc2c1O[C@H](CN(C)S(=O)(=O)c1ccccc1)[C@@H](C)CN([C@H](C)CO)C2=O | 5.1 | 3.2
O=C(c1cccc(F)c1)N1CC[C@@H]2[C@H]1c1cc(C#Cc3cccc(F)c3)ccc1N[C@@H]2CO | -18.6 | -10.8
CO[C@H]1CN(C)C(=O)c2cc(NC(=O)C3CCCC3)ccc2OC[C@@H](C)NC[C@@H]1C | -5.7 | 2.6

The results go on:
mol | Vaccinia stage | Vaccinia stage Venus
Cc1ccc(S(=O)(=O)Nc2ccc3c(c2)C(=O)N([C@H](C)CO)C[C@H](C)[C@@H](CN(C)S(=O)(=O)c2c(C)noc2C)OCCCC[C@@H](C)O3)cc1 | -17.2 | -20.1
COC(=O)[C@H]1[C@H](CO)[C@H]2Cn3c(ccc(-c4ccc(F)cc4)c3=O)[C@H]2N1C(=O)C1CCC1 | -6.6 | 5.7
CO[C@H]1CN(C)C(=O)c2ccc(NS(=O)(=O)c3ccccc3C)cc2OC[C@@H](C)N(S(C)(=O)=O)C[C@@H]1C | -0.6 | -4.8
CC=Cc1ccc2n(c1=O)C[C@@H]1[C@@H](CO)[C@H](C(=O)NCCOC)[C@H]2N1Cc1ccccc1 (mixture of isomers) | 13.0 | 6.3
C[C@@H]1CCCCO[C@H](CN(C)C(=O)Nc2ccc3c(c2)OCO3)[C@H](C)CN([C@@H](C)CO)C(=O)c2cc(NS(=O)(=O)c3cccs3)ccc2O1 | -9.3 | -8.2
O=C(c1ccccc1)N1CC(=O)N2[C@H](CO)[C@@H](c3ccc(C#CCC4CCCC4)cc3)[C@H]2C1 | ? | /
C[C@H](CO)N1C[C@H](C)[C@H](CN(C)Cc2cncnc2)Oc2ncc(C#C[C@@H](C)O)cc2C1=O | 7.2 | 11.7
Cc1ccccc1-c1cnc2c(c1)C(=O)N([C@H](C)CO)C[C@@H](C)[C@@H](CN(C)C(=O)c1ccccc1)O2 | -2.8 | -3.4
C[C@H]1CN([C@@H](C)CO)C(=O)Cc2cc(NS(=O)(=O)c3cn(C)cn3)ccc2O[C@H]1CN(C)C(=O)Nc1ccc2c(c1)OCO2 | 27.3 | 9.8
C[C@H]1CN([C@@H](C)CO)C(=O)Cc2cc(NC(=O)Nc3ccc4c(c3)OCO4)ccc2O[C@@H]1CN(C)Cc1ccc(Cl)c(Cl)c1 | -34.5 | -21.6
COc1ccc(S(=O)(=O)N2C[C@H](O)COC[C@@H]3O[C@H](CC(=O)NCc4ccc(Cl)c(Cl)c4)CC[C@H]32)cc1 | -30.5 | -24.8
O=C(CCN1CCCCC1)NCC[C@@H]1CC[C@@H](NC(=O)C2CCCCC2)[C@@H](CO)O1 | 3.9 | 8.0
CC(C)OC(=O)N(C)C[C@H]1OCc2ccccc2-c2c(n(C)c3ccccc23)C(=O)N([C@H](C)CO)C[C@@H]1C | -27.7 | -29.0
CCCC#Cc1ccc([C@@H]2[C@H]3CN(C(=O)c4ccncc4)CC(=O)N3[C@H]2CO)cc1 | 30.1 | 17.5
C[C@@H]1CN([C@H](C)CO)C(=O)c2cc(NC(=O)CCC(F)(F)F)ccc2O[C@@H](C)CCCCO[C@@H]1CN(C)C(=O)c1ccccc1 | -35.0 | -17.5

Four compounds already listed, arranged by SMILES length, lowest first.
mol | Vaccinia stage | Vaccinia stage Venus
O=C(CCN1CCCCC1)NCC[C@@H]1CC[C@@H](NC(=O)C2CCCCC2)[C@@H](CO)O1 | 3.9 | 8.0
CC=Cc1ccc2n(c1=O)C[C@@H]1[C@@H](CO)[C@H](C(=O)NCCOC)[C@H]2N1Cc1ccccc1 (mixture of isomers) | 13.0 | 6.3
C[C@H]1CN([C@@H](C)CO)C(=O)Cc2cc(NS(=O)(=O)c3cn(C)cn3)ccc2O[C@H]1CN(C)C(=O)Nc1ccc2c(c1)OCO2 | 27.3 | 9.8
C[C@@H]1CN([C@H](C)CO)C(=O)c2cc(NC(=O)CCC(F)(F)F)ccc2O[C@@H](C)CCCCO[C@@H]1CN(C)C(=O)c1ccccc1 | -35.0 | -17.5
